eIF4H inh: inhibitors of RNA binding by human eIF4H; Q15056; AID 2012; eIF4H fluorescence polarization binding assay; 290,000 compounds, 0.94% hits; inhibition, % at 35 µM;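 active = 50% or more with normal probe brightness, or confirmed in later tests; inconclusive = above 50% with abnormal brightness, or retests that disagree; inactive = below 50% or failed in later tests; about a fifth of its hits are not listed in these tables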;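 note: calls also rest on retests at 20 µM and on dose response follow-up; 0% = protein and probe with vehicle and 100% = probe without protein; strong numbers were not always called active; many hits fall short of the cut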
MT1-MMP act inh: MT1-MMP (human) activation inhibition; 360,000 compounds, 0.061% hits; HT1080 RFP-PRO-GFP cells, GFP/RFP ratio fluorescence, overnight; percent of plate control window, DMSO zero; AID 651647; GFP/RFP ratio change, % at 20 µM; P50281;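 active = GFP/RFP ratio change of at least 30% with cell ATP level not reduced by more than half and red fluorescence within 50% of control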; note: strong numbers were not always called active
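Read-out: GFP/RFP fluorescence ratio; Test system: RFP-PRO-GFP reporter HT1080 cells; Compound dosing: single-point 20 µM compound, 1% DMSO; Times: overnight compound exposure at 37 °C.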
CSC inhib: blocks cancer stem cells | cancer stem cell-like cells viability, luminescence | AID 2717 | inhibition, % at 7.5 µM | 300,000 compounds, 1.1% hits;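 active = mean at 75% or more and at least half the replicates too; inconclusive = mean and replicates disagree; tested in HMLE shEcad cells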;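 note: 0% = median of negative and 100% = median of positive control wells; the first replicate is given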
Rce1 inh: yeast Ras-converting enzyme inhibition; Q03530; yeast membranes, quenched prenylated peptide cleavage fluorescence; calls only; 290,000 compounds, 0.27% hits; AID 2563;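 active = fall in fluorescence gain of 50% or more versus controls, with final raw signal at or below 3038400; inconclusive = same 50% fall but final raw signal above 3038400; inactive = fall in fluorescence gain under 50%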;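 note: plate controls were neutral control wells for no effect and wells lacking membranes for full effect; tested at 10 µM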
Target sequence (Q03530 whole entry, looked up): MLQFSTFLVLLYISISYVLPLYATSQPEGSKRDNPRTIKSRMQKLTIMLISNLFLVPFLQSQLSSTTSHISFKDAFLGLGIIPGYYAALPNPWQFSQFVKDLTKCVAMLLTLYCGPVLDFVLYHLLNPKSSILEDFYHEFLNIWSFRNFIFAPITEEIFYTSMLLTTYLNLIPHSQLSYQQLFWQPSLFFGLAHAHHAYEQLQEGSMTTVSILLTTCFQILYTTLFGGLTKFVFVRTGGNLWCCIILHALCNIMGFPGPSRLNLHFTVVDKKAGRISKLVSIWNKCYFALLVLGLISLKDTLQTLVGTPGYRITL
PABP FP inh: blocks human PABP binding to poly(A) RNA; 290,000 compounds, 1% hits; inhibition, % at 35 µM; P11940; fluorescence polarization; AID 2014;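 active = 50% or more with normal probe brightness, or confirmed in later tests; inconclusive = above 50% with abnormal brightness, or retests that disagree; inactive = below 50% or failed in later tests; about a fifth of its hits are not listed in these tables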;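 note: calls also rest on retests at 20 µM and on dose response follow-up; controls were probe without protein and protein plus probe with vehicle; some compounds called inactive have numbers as strong as hits; many hits fall short of the cut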
HIV Env fusion: HIV envelope-mediated fusion inhibition; HeLa-JRFL Env/CEM21 cell fusion, luciferase; inhibition, % at 12.3 µM; 360,000 compounds, 1.1% hits; AID 651610;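 active = mean replicate inhibition score of at least 50 and every replicate individually at or above 50; inconclusive = only one of the two criteria met; inactive = mean below 50 and not all replicates reaching 50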;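 note: 0% = plate neutral controls and 100% = maraviroc near 300 nM; one replicate is shown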
Yeast UUG start: yeast start codon fidelity modulation | AID 602363 | 350,000 compounds, 0.13% hits | activity score, % at 18.7 µM | S. cerevisiae UUG-firefly luciferase reporter, luminescence/redox ratio;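 active = replicate mean at a twofold rise or more, about +100% in these data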;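 note: firefly luciferase made from a UUG start codon reports start codon fidelity; reporter light over untreated wells divided by growth signal over untreated wells; some hits fall short of that in this replicate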
eIF4H inh retest: second read-out of eIF4H inh, no call of its own (marks repeat the call); inhibition, %; compound at 20 µM; confirmation average;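 mean of two retest wells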
PABP FP inh retest: further read-out of PABP FP inh, marked with its call; inhibition, %; compound at 20 µM; confirmation repeats;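 mean of two retest wells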
MT1-MMP act inh RFP: recorded beside MT1-MMP act inh, whose call it bears; RFP signal change, %; measured here: RFP expression control read;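 0 = vehicle wells; hits needed this value within 50% of zero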
Numbers without * were called inactive; i = inactive; ? = inconclusive; . = no result given.

SMILES | eIF4H inh | MT1-MMP act inh | MT1-MMP act inh RFP | CSC inhib | Rce1 inh | PABP FP inh | HIV Env fusion | Yeast UUG start | others
O=C(Nc1ccc(C(=O)O)cc1)/C(=C\C=C\c1ccccc1)NC(=O)c1ccccc1Br | 8 | 6 | 1 | 23 | i | 8 | -29 | -18
Cc1ccc(C(=O)NN=CC(=O)c2ccccc2)c(C)c1 | . | 0 | -2 | 1 | . | . | . | -19
COC(=O)c1cc(N=CC2=C(O)CC(C)(C)CC2=O)cc(C(=O)OC)c1 | -12 | 4 | 5 | -25 | i | -12 | 2 | .
O=C(NCCS(=O)(=O)N1CCN(c2ccccc2F)CC1)C1CC(=O)N(c2ccc(F)cc2)C1 (stereo not given) | -14 | 0 | -4 | -4 | i | -3 | -8 | -13
CC(=O)Nc1ccc2c(CSc3nncs3)cc(=O)oc2c1 | -2 | -1 | 4 | -12 | i | 10 | 8 | 0
Cc1cc(OCC(=O)Nc2cccnc2)c2c(C)c(C)c(=O)oc2c1 | -12 | 2 | -1 | -7 | i | -20 | 0 | -15
CNc1nc(C)cc(C)c1S(=O)(=O)c1ccc(C)cc1 | 1 | -1 | -4 | -4 | i | -7 | . | -13
CC1CCN(c2ncnc3c2cnn3Cc2ccc(Cl)cc2)CC1 | 0 | 1 | -10 | 28 | . | -9 | 38 | -10
Cc1ccc(N2CC(C(=O)NCC3CCCO3)CC2=O)cc1Cl (stereo not given) | -5 | 6 | 5 | 5 | i | -2 | . | -17
O=C(c1cc(C2CC2)on1)N1CCCC(N2CCN(c3cccc(C(F)(F)F)c3)CC2)C1 (stereo not given) | -2 | -2 | -3 | 26 | i | 6 | 38 | -6
O=C(Cc1ccc(Nc2nc3ccc(Br)cc3[nH]2)cc1)NCCc1cccs1 | 4 | 7 | -1 | 8 | i | -8 | 61* | -6
N=C(N)SCc1ccccc1Cl | -2 | 0 | -1 | . | i | 9 | 6 | -8

7 structures out of the list, arranged by length of the SMILES, ascending:
SMILES | eIF4H inh | MT1-MMP act inh | MT1-MMP act inh RFP | CSC inhib | Rce1 inh | PABP FP inh | HIV Env fusion | Yeast UUG start | others
N=C(N)SCc1ccccc1Cl | -2 | 0 | -1 | . | i | 9 | 6 | -8
Cc1ccc(C(=O)NN=CC(=O)c2ccccc2)c(C)c1 | . | 0 | -2 | 1 | . | . | . | -19
Cc1ccc(N2CC(C(=O)NCC3CCCO3)CC2=O)cc1Cl (stereo not given) | -5 | 6 | 5 | 5 | i | -2 | . | -17
Cc1cc(OCC(=O)Nc2cccnc2)c2c(C)c(C)c(=O)oc2c1 | -12 | 2 | -1 | -7 | i | -20 | 0 | -15
O=C(Cc1ccc(Nc2nc3ccc(Br)cc3[nH]2)cc1)NCCc1cccs1 | 4 | 7 | -1 | 8 | i | -8 | 61* | -6
COC(=O)c1cc(N=CC2=C(O)CC(C)(C)CC2=O)cc(C(=O)OC)c1 | -12 | 4 | 5 | -25 | i | -12 | 2 | .
O=C(c1cc(C2CC2)on1)N1CCCC(N2CCN(c3cccc(C(F)(F)F)c3)CC2)C1 (stereo not given) | -2 | -2 | -3 | 26 | i | 6 | 38 | -6

Next part:
SMILES | eIF4H inh | MT1-MMP act inh | MT1-MMP act inh RFP | CSC inhib | Rce1 inh | PABP FP inh | HIV Env fusion | Yeast UUG start | others
CCCNC(=O)Cn1cnc2sc(C(=O)N3CCN(CCC)CC3)c(C)c2c1=O | 0 | 3 | 8 | 4 | i | -1 | . | -12
COc1ccc(CC(=O)OCC(=O)Nc2cc(Cl)ccc2C)cc1 | . | 2 | -1 | -1 | . | . | 5 | .
CCOC(=O)C1=C[C@@H](CC)N(S(=O)(=O)c2ccc(C)cc2)[C@H]1c1cccc(Cl)c1 | . | 1 | -10 | . | . | . | 14 | 4
Cc1cc(C)n2c(SCC(=O)Nc3ncc(C(F)(F)F)cc3Cl)nnc2n1 | -3 | -2 | 4 | -11 | . | -3 | 2 | -9
CCOc1cccc(C(=O)Nc2ccccc2C(=O)N2CCOCC2)c1 | -5 | 2 | 0 | -21 | i | 2 | 6 | -24
O=C(c1ccccc1SCc1ccccc1)N1CCOCC1 | -7 | -1 | -2 | 15 | i | 3 | 4 | .
Cc1ccc(S(=O)(=O)N(C)c2ccc(OC(C)C(=O)N(C)c3ccccc3)cc2)cc1 (stereo not given) | . | 0 | -12 | . | . | . | 5 | -8
O=C(NCCN1CCN(S(=O)(=O)c2ccc(F)cc2)CC1)C(=O)NCc1ccccc1 | 10 | -3 | -3 | -11 | i | 14 | -13 | 2
CCOc1ccc(C(=O)NCC(C)NC(=O)c2ccc(OCC)cc2)cc1 (stereo not given) | 5 | -6 | 0 | -7 | i | 6 | -1 | 109*
O=C(NNc1ccccc1)c1ccccc1 | . | 0 | 1 | . | . | . | 5 | 4
CC(C)C(OC(=O)c1ccco1)C(=O)NCc1ccccc1 (stereo not given) | -3 | 3 | 7 | 3 | i | -7 | -36 | -27
COc1ccc(C(=O)c2sc3nc(-c4ccccc4)ccc3c2N)cc1OC | 13 | -79 | -6 | -5 | i | 5 | -194 | 11
COc1ccc(C)cc1NC(=O)c1cc(S(=O)(=O)N2CCCCC2)ccc1N1CCOCC1 | . | -5 | -9 | 1 | . | . | -6 | 7
CCOC(=O)c1c(C)[nH]c(C)c1C(=O)CSc1nnc(N)s1 | 7 | -1 | 3 | -12 | i | -8 | -10 | .
O=C(COC(=O)CCC(=O)c1cccs1)NCc1ccc(Cl)cc1 | -4 | 3 | 5 | -13 | i | 5 | 20 | -21
N#Cc1cc2ccncc2c2ccccc12 | . | -14 | -5 | . | . | . | 19 | -26
CC(C)N(C(=O)CSc1nnnn1C1CCCC1)C(C)C | 4 | 4 | 3 | -13 | i | 1 | . | -7
C=C(C)Cn1c(CNC(C)=O)nc2ccccc21 | 4 | -3 | 4 | . | i | -16 | -6 | -21
O=C(CNC(=O)c1ccc(Br)cc1)NCC(=O)OCC(=O)c1ccc([N+](=O)[O-])cc1 | 15 | -2 | 2 | -1 | i | 0 | . | -17
Cc1cc(=O)oc2cc(OCCSCCN3CCCCC3)ccc12 | 3 | 3 | -1 | -1 | i | 17 | 3 | 5
CCOC1=C2[C@@H](CN(S(=O)(=O)c3ccc(C)cc3)[C@H]2c2ccc(Cl)cc2)[C@H]2C(=O)N(c3ccccc3)C(=O)[C@H]2C1 | . | 6 | 1 | . | . | . | -90 | -21
COc1ccc(C(CNC(=O)COc2ccccc2OC)N2CCCCC2)cc1 (stereo not given) | . | 1 | 3 | 0 | i | . | 2 | -31
CC1(CCC#N)N=C(SCCC#N)N(c2ccccc2)C1=O (stereo not given) | -12 | -3 | 1 | 4 | i | -6 | -51 | -13
CC(=O)c1ccc(N2CCN(C(=O)c3cccs3)C(C)C2)c(F)c1 (stereo not given) | -9 | -2 | -2 | -2 | i | -1 | -62 | -14
COc1ccccc1NC(=O)COC(=O)Cc1ccc(S(=O)(=O)N2CCCCC2)s1 | -7 | 3 | 7 | -11 | i | -3 | -6 | .
O=C(Nc1cccc(O)c1)c1c(O)c2ccccc2[nH]c1=O | -6 | 2 | 0 | 14 | i | 1 | -320 | -15
Cc1ccccc1NS(=O)(=O)c1ccc(C(=O)N2CCCC(C(F)(F)F)C2)cc1 (stereo not given) | . | -1 | -6 | -6 | i | . | . | -13
Cc1c(-n2c(=O)n(Cc3ccccc3)c(=O)c3[nH]cnc32)cccc1S(C)=O (stereo not given) | -5 | -8 | 4 | -12 | i | 0 | -8 | -23
O=C(c1ccc(S(=O)(=O)N2CCCCC2)cc1)c1nnc(-c2ccc(Cl)cc2)o1 | -4 | 4 | 1 | . | i | 7 | . | 0
CC(C)(O)[C@H](O)COc1c2ccoc2cc2oc(=O)ccc12 | 2 | -3 | 1 | 11 | i | 0 | -15 | -24
O=C1CN=C(Nc2ccc(Cl)cc2)N1c1ccccc1 | -3 | 1 | 2 | 1 | i | 2 | . | -5
O=C(O)c1cccc(NC(=O)c2ccc(N3C(=O)c4ccc(C(=O)Nc5cccc(C(=O)O)c5)cc4C3=O)cc2)c1 | 78 | 3 | 3 | . | i | 30 | 16 | -29 | eIF4H inh retest=30;PABP FP inh retest=5
Cc1cc2nc3c(=O)[nH]c(=S)[nH]c3nc2cc1NC(=O)C(F)(F)F | ? | -46 | 7 | -2 | i | ? | -10 | -16
COC(=O)c1ccc(NC(=O)Cn2nnc(-c3cccs3)n2)cc1 | -7 | 0 | 0 | -15 | i | 0 | 5 | 0
Nc1nonc1C(=O)NCCNC(=O)c1cccc(Cl)c1 | -3 | 4 | 5 | -2 | i | -2 | -40 | -23
CCn1ncc(CNC(=O)C2(C)CC2(Cl)Cl)c1C (stereo not given) | 8 | -1 | 10 | 9 | i | -5 | 2 | 6
Cc1c(C)n(C)c2ccc(C(=O)N3CCN(c4ccccc4)CC3)cc12 | -11 | 4 | 4 | 10 | i | 8 | -2 | 38
COC(=O)C1OC2(OC1C(=O)OC)c1ccccc1-c1ccccc12 (stereo not given) | -4 | -3 | -1 | -5 | i | 4 | . | -17
COc1cc2cc(CN(CCO)C(=O)c3cccs3)c(=O)[nH]c2cc1OC | 2 | 4 | 7 | -9 | i | -4 | 28 | -12
Cc1cc(=O)n(CCO)c(O)c1C#N | ? | -8 | -4 | -10 | i | ? | -10 | -17
O=C(O)CCNS(=O)(=O)c1ccc(Oc2ccccc2Cl)cc1 | -8 | 2 | 10 | -11 | i | 3 | -30 | -8
Cc1c(C(=O)Nc2ccc3c4c(cccc24)CC3)cccc1[N+](=O)[O-] | 8 | 3 | 1 | 38 | i | 0 | 12 | -17
CC(=O)c1ccc(N2CCN(C(=O)C3CCN(S(=O)(=O)c4ccc5c(c4)CC(C)N5C(=O)C4CC4)CC3)CC2)cc1 (stereo not given) | -9 | 4 | -17 | 13 | i | 0 | 12 | 1
CCOc1ccccc1N1C(=O)c2cccnc2C1=O | -2 | 1 | 4 | -13 | i | -4 | -44 | -20
Cc1cc(=O)oc(C)c1C(=O)Nc1ccc(Cl)cn1 | 1 | -1 | 5 | -3 | i | 2 | 1 | -7
Cc1c(C(=O)N2CCN(c3ccccc3F)CC2)sc2nc(-c3ccccc3)cn12 | -11 | 3 | -11 | -6 | i | -8 | -18 | -17
COc1ccc(C(CNC(=O)c2cccc(S(=O)(=O)Nc3ccccc3OC)c2)N2CCCC2)cc1 (stereo not given) | . | 3 | -2 | -8 | i | . | -12 | .
c1ccc(Cc2nc3ccccc3[nH]2)cc1 | -8 | 1 | -1 | -3 | i | 2 | 1 | -18
Cc1ccc(C2CC(c3cccs3)=NN2C(=O)CSC2=NCCS2)cc1 (stereo not given) | -2 | -5 | -7 | 3 | i | 4 | . | -20
COc1ccc(CC(=O)Nc2nn(C)c3nc4c(C)cccc4cc23)cc1 | 0 | 3 | -1 | -5 | i | -7 | -13 | -11

From PubChem

No enrichment for hits; about 2.9% have a hit in one of these screens.
